Screening results deposited in PubChem by several laboratories.
Vif A3G – inhibitors of Vif binding to APOBEC3G peptide, primary screen, biochemical, TR-FRET, GST-Vif 1-94, biotin-A3G peptide, dose response retest (AID 1117319); TR-FRET GST-Vif / biotin-A3G peptide binding; higher % means a stronger effect; test concentration not given here; strong numbers were not always called active; one-dose inhibition, %; IC50 in µM for titrated hits; 0.57% of 260,000 active;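 active = above the screen mean plus three standard deviations and confirmed in dose response; inconclusive = results disagree or hit not tested in dose response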;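 note: Vif residues 1-94 fused to GST binding biotinylated APOBEC3G peptide 110-148; 0% = full assay without inhibitor and 100% = GST in place of GST-Vif; retest series ran down from 100 µM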
Bfl-1 A1 inh – inhibitors of the anti-apoptotic protein A1, read as caspase activation. MEF A1-2A-BIM cells, Caspase-Glo 3/7 luminescence, 3 h; percent of clofoctol response, vehicle zero. caspase activation, % (test concentration not listed). 0.066% of 330,000 active;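 active = over half of replicate activation scores above 10%, or exactly half above 10 with the replicate mean above 10; inconclusive = replicate mean below 10 yet half the replicates above 10; inactive = over half of replicates below 10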;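 note: wells of about 30 µL received 50 nL stock; many hits fall short of the cut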
B2AR ag – human beta-2 adrenergic receptor agonism by FAP | response, % (test concentration not listed) | P07550 | Am2.2-beta2AR cells, FAP receptor internalization, flow cytometry; reference of the scale not given here | 0.43% of 340,000 active;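 active = response above a set limit, near 3 SD of response in nonfluorescent compounds, cut at about 42% in these data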;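 note: stock transfer was 100 nL into about 11 µL; a reference agonist was the positive control; negative values mostly stem from fluorescent compounds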
E coli growth – blocks Escherichia coli growth; OD600, 23 h; hits give low values; 0.21% of 330,000 active; OD600 absorbance (no concentration beside the values);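 active = OD600 absorbance below the run mean of sample wells minus 3.6 SD, in any replicate, cut at about 0.56 in these data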;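 note: stock transfer was 300 nL into about 60 µL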
UCH37 DUB inh – human UCH37 deubiquitinating enzyme inhibition. purified proteasome/UCH37, Ub-AMC cleavage fluorescence. inhibition, % (no concentration beside the values). 0.33% of 330,000 active;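 active = mean of two replicates above 20%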;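 note: 0% = compound-free wells with enzyme and 100% = wells lacking proteasome; stock transfer was 100 nL into about 20 µL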
Target sequence (Q9Y5K5 whole entry, looked up): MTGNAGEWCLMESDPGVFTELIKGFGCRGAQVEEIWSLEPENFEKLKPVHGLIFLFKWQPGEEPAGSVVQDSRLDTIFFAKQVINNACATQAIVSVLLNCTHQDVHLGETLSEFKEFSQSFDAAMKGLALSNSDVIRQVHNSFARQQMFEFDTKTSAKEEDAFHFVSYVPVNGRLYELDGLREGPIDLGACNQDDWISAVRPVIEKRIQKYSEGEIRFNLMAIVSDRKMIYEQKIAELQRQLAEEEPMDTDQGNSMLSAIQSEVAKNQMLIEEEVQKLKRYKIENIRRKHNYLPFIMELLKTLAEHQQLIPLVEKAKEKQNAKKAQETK
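Test system – human UCH37 enzyme supplied as purified proteasome complex · Incubation – 30 min preincubation with enzyme, 25 min cleavage at room temperature · Detection – AMC fluorescence from Ub-AMC cleavage, excitation 355 nm, emission 460 nm · Benchmarks – no-proteasome wells (full inhibition) and compound-free wells (no inhibition)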
LANA-H2A inh – blocks KSHV LANA binding to histone H2A/H2B. AID 2629. 0.6% of 320,000 active. Q9QR71. cell-free LANA-H2A/H2B peptide, fluorescence polarization. inhibition, % (no concentration beside the values); in the data active = inhibition mostly above about 10%, no sharp cut-off; inactive = mostly below about 6.7%;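 note: stock transfer was 7.5 nL into about 10 µL; 0% = median of vehicle wells and 100% = median of positive control wells; one replicate is shown; the record names a cut of 25% in any replicate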
HNF4A DNA FP – change in binding of human HNF4 alpha to DNA | P41235 | HNF4a-FITC DNA binding, fluorescence polarization, 1 h | activity change, % at 10 µM | 0.3% of 360,000 active | AID 1224865; in the data active = activity change above about 30%, passing the limit was not always enough;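 note: controls were the assay level and a saturating level of protein; the project sought stronger binding though the title names inhibitors; some compounds called inactive have numbers as strong as hits; positive values seem to mean higher polarization but the record does not say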
Target sequence (P41235 whole entry, looked up): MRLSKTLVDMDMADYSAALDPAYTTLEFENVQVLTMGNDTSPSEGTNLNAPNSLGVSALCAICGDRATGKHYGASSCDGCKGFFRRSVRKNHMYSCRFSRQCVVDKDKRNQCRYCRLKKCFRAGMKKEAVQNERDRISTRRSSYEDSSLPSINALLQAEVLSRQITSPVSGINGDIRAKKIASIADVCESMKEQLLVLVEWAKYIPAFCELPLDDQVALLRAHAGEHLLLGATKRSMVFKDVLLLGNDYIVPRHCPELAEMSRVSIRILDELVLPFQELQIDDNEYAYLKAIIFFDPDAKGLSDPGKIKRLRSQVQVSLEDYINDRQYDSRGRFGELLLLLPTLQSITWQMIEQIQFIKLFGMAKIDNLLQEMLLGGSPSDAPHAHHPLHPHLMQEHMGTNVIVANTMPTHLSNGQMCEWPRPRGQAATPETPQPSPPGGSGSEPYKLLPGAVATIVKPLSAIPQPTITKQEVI
Starred values were filed as active, the others as inactive; i = inactive; ? = inconclusive; · = not tested or not shown. Compounds as they come; 2.1% or so of the library scored in one or more.

SMILES	Vif A3G	Bfl-1 A1 inh	B2AR ag	E coli growth	UCH37 DUB inh	LANA-H2A inh	HNF4A DNA FP
Cc1cccc(NC(=S)N(CCN(C)C)Cc2cc3cc(C)ccc3[nH]c2=O)c1	5.2%	1.9	-2.7	0.66	3.0	0.6	-0.6
Cc1noc(C)c1COc1ccccc1C(=O)NC(C)c1ccc(Cl)cc1 (stereo unspecified)	-11.9%	0.8	0.7	0.698	4.4	0.4	-3.7
COc1ccc(S(=O)(=O)Nc2ccc(NC(C)=O)cc2)cc1Br	0.7%	-0.4	2.3	0.675	-0.2	1.2	-2.1
Cc1ccc2[nH]c(C(=O)NN=C3CCCCC3)c(-c3ccccc3)c2c1	1.5%	-0.1	5.7	0.69	-7.2	-0.9	-3.4
O=C(Nc1cccc(S(=O)(=O)N2CCCCCC2)c1)c1cc(=O)c2ccccc2o1	0.2%	0.5	5.8	0.733	3.9	5.7	1.6
COc1ccc(CCN(C)C(=O)c2cc(S(=O)(=O)NCc3ccccc3)ccc2C)cc1OC	-1.2%	-0.4	4.1	0.653	5.4	-1.1	0.2
COc1ccc(OC(=O)/C=C/c2ccc([N+](=O)[O-])cc2)cc1	-1.6%	-1.5	-2.4	0.712	6.4	-2.8	-2.0
COc1ccccc1NC(=O)NC1(C)CCS(=O)(=O)C1 (stereo unspecified)	·	·	5.7	0.644	2.1	·	-0.7
Cc1cc([N+](=O)[O-])cc2c1-c1ncccc1C2=Nc1ccccc1	-4.4%	2.4	-1.2	0.671	7.9	-1.7	0.4
COCC(C)Nc1nc(C)c(C(C)=O)s1 (stereo unspecified)	6.8%	-0.9	1.5	0.648	7.7	-0.8	1.5
CN(Cc1c(C(=O)N/N=C/c2ccc(O)cc2)nnn1-c1nonc1N)C1CCCCC1	·	-1.0	10.2	·	·	-4.7	-0.2
CCOC(=O)C1CCN(C(=O)CCc2nnc3ccc(NCc4ccco4)nn23)CC1	·	-0.5	2.7	0.689	3.4	2.0	3.0
Cc1cccc(OCc2nnc3n2CCCCC3)c1	1.1%	0.6	-2.5	0.655	0.6	-0.5	1.1
Nc1ncncc1-c1ccccc1Cl	0.5%	·	-3.9	0.652	-0.2	·	1.5
CCOC(=O)Cc1csc(NC(=O)CSc2cc(Cl)ccc2Cl)n1	15.2%	-0.6	6.2	0.615	2.5	-6.5	1.1
O=C(CN(C(=O)CCC(=O)Nc1ccccn1)C1CCCC1)NCc1ccc(F)cc1	·	0.8	-6.9	0.692	1.2	-3.3	0.2
COC(=O)C1C(O)=C(C(C)=N)C(=O)CC1(C)C (stereo unspecified)	2.6%	0.9	-3.9	0.681	4.9	8.2	1.8
CCOc1ccc(N2CC(C(=O)Nc3ccccc3C(=O)N3CCOCC3)CC2=O)cc1 (stereo unspecified)	-4.6%	0.7	4.7	0.664	-1.4	7.7	-2.0
CO[C@H]1C=CO[C@@]2(C)Oc3c(C)c(O)c4c(O)c(c5c(c4c3C2=O)NC2(CCN(CC(C)C)CC2)N=5)=NC(=O)C(C)=CC=C[C@H](C)[C@H](O)[C@@H](C)[C@@H](O)[C@@H](C)[C@H](OC(C)=O)[C@@H]1C	-8.6%	-1.0	·	·	·	-2.1	·
CCCn1c(O)c(CN2CCCCC2)c(C)c(C#N)c1=O	27.8%	-0.7	3.0	0.742	1.3	-1.5	-0.5
Cn1c(=O)[nH]c(=O)c2c1ncn2CCCc1ccccc1	-4.6%	-0.2	9.6	0.747	1.8	-0.7	-0.7
O=S(=O)(Nc1ccc(Cl)cc1NS(=O)(=O)c1ccccc1)c1ccccc1	20.4%	·	-2.6	0.644	2.2	·	-3.6
Cc1nc(CCNC(=O)CC2C(=O)NCCN2Cc2ccccc2F)sc1C (stereo unspecified)	-2.3%	1.2	-4.2	0.647	-0.7	0.6	-1.7
COc1ccccc1NS(=O)(=O)c1c(C)[nH]c(C)c1C(=O)N1CCCC1	·	?	6.5	0.665	1.2	-5.4	-6.5
COc1ccc(CNc2ccc(S(N)(=O)=O)cc2)c(OC)c1OC	2.2%	0.6	3.9	0.683	3.8	0.2	-0.7
CCOc1ccc(-c2cc(N)n(S(=O)(=O)c3ccc(OC)c(OC)c3)n2)cc1	3.7%	-0.5	2.3	0.717	2.0	-3.5	0.2
COC(=O)C1=NN[C@H](C(=O)OC(C)(C)C)[C@H]1c1ccccc1	-2.2%	-2.1	2.0	0.696	2.8	3.4	0.0
COc1cccc(NC(=O)Cn2nnc(C(=O)Nc3cc(Cl)ccc3OC)c2N)c1	·	0.2	0.3	0.698	-1.1	2.2	5.7
CCOC(=O)c1c(NC(=O)COC(=O)Cn2cnc3ccccc32)sc2c1CCC(C)C2 (stereo unspecified)	·	0.4	-3.9	0.683	-2.4	6.8	2.7
CCCCCn1nc(C(=O)OCc2nnc(-c3ccccc3)o2)c2ccccc2c1=O	0.4%	0.1	-6.9	0.65	0.7	2.1	-1.5

Part of the list above with just E coli growth, Vif A3G and UCH37 DUB inh:
compound	E coli growth	Vif A3G	UCH37 DUB inh
Cc1nc(CCNC(=O)CC2C(=O)NCCN2Cc2ccccc2F)sc1C (stereo unspecified)	0.647	-2.3%	-0.7
COc1ccccc1NS(=O)(=O)c1c(C)[nH]c(C)c1C(=O)N1CCCC1	0.665	·	1.2

Single records, from the list above. Order of screens: Vif A3G	Bfl-1 A1 inh	B2AR ag	E coli growth	UCH37 DUB inh	LANA-H2A inh	HNF4A DNA FP
CCCn1c(O)c(CN2CCCCC2)c(C)c(C#N)c1=O across the screens: 27.8%	-0.7	3.0	0.742	1.3	-1.5	-0.5
COc1cccc(NC(=O)Cn2nnc(C(=O)Nc3cc(Cl)ccc3OC)c2N)c1 across the screens: ·	0.2	0.3	0.698	-1.1	2.2	5.7
COc1ccc(CNc2ccc(S(N)(=O)=O)cc2)c(OC)c1OC across the screens: 2.2%	0.6	3.9	0.683	3.8	0.2	-0.7

Following part
SMILES	Vif A3G	Bfl-1 A1 inh	B2AR ag	E coli growth	UCH37 DUB inh	LANA-H2A inh	HNF4A DNA FP
COc1ccc(N2C(=O)CC(N3CCC(O)(c4ccc(Br)cc4)CC3)C2=O)cc1 (stereo unspecified)	-0.1%	-0.5	-6.6	0.708	4.3	-3.2	1.9
COc1ccc(-n2c(SC(C)C(=O)Nc3ncc(Cl)cc3Cl)nc3ccccc32)cc1 (stereo unspecified)	·	-0.8	-22.8	0.738	-72.0	i	0.0
CC1CC(C)(C)N(C(=O)CSc2ccc(-c3ccc(F)cc3)nn2)c2ccccc21 (stereo unspecified)	1.7%	0.5	-3.4	0.678	4.9	1.2	1.1
O=C(Nc1sc2c(c1C(=O)O)CCC2)C(=O)N1CCOCC1	·	-0.5	2.3	0.7	8.1	0.8	-15.2
COc1ccc(/C(C)=N/NC(=S)NCc2ccco2)cc1	·	0.8	-0.3	·	·	-4.5	0.9
COc1cc(/C=C/C(=O)c2c(O)ccc3c(C)cc(=O)oc23)ccc1O	6.5%	0.0	11.7	0.747	9.2	-4.0	-0.6
CCN(CC)S(=O)(=O)c1cccc(C(=O)NC(C)C(c2cccs2)N2CCCC2)c1 (stereo unspecified)	18.7%	-0.1	2.0	0.677	1.1	0.5	1.7
O=S1(=O)CCN(OCc2ccc(Cl)cc2)CC1	·	0.7	4.8	0.694	-1.0	-13.1	2.7
O=C(NNC(=O)c1ccccc1O)c1ccc(NS(=O)(=O)c2ccc(F)c(F)c2)cc1	9.7%	-0.8	4.4	0.692	-0.1	3.6	-2.8
CC1(C)CC(=O)C=C(c2cccc3c2oc2ccccc23)C1	·	-1.4	-8.6	0.661	0.4	1.2	1.4
COc1ccc(S(=O)(=O)N2CCCCC2)cc1NC(=O)c1ccc(CS(C)(=O)=O)cc1	-2.3%	-0.9	5.0	0.688	1.7	·	-2.2
COc1ccc(CNC(=O)CSc2nnnn2Cc2ccccc2)cc1	20.6%	1.2	0.7	0.713	0.7	-3.3	0.0
COc1cc(-c2nc3ccccn3c2/N=C/c2cc(OC)c(O)cc2Cl)ccc1O	22.2%	-6.9	4.5	·	·	-1.0	-6.4
Cc1cc(C)nc(SCCn2c(N3CCOCC3)nc3c2c(=O)[nH]c(=O)n3C)n1	-4.1%	0.6	-13.0	0.693	-2.6	0.6	-4.1
Cc1ccc(NC(=O)Nc2cccs2)c(Cl)c1	9.0%	-1.0	-8.2	0.669	1.9	1.7	1.5

Laid out differently: 3 of the compounds above
Below each compound – Vif A3G, Bfl-1 A1 inh, B2AR ag, E coli growth, UCH37 DUB inh, LANA-H2A inh, HNF4A DNA FP
O=C(NNC(=O)c1ccccc1O)c1ccc(NS(=O)(=O)c2ccc(F)c(F)c2)cc1
 : 9.7%, -0.8, 4.4, 0.692, -0.1, 3.6, -2.8
COc1ccc(-n2c(SC(C)C(=O)Nc3ncc(Cl)cc3Cl)nc3ccccc32)cc1 (stereo unspecified)
 : ·, -0.8, -22.8, 0.738, -72.0, i, 0.0
COc1cc(/C=C/C(=O)c2c(O)ccc3c(C)cc(=O)oc23)ccc1O
 : 6.5%, 0.0, 11.7, 0.747, 9.2, -4.0, -0.6

Later entries:
SMILES	Vif A3G	Bfl-1 A1 inh	B2AR ag	E coli growth	UCH37 DUB inh	LANA-H2A inh	HNF4A DNA FP
COc1ccc(-c2csc(NC(=O)C3CCCCN3S(=O)(=O)c3ccccc3)n2)cc1 (stereo unspecified)	-3.7%	?	15.6	0.76	1.0	-4.1	3.7
CC(=O)c1ccc(OCCN2CCOCC2)cc1	-4.9%	1.0	6.2	0.718	1.1	-0.1	1.9
C=CCNCCOCCOc1ccc(C)cc1Br	-10.8%	-0.7	7.6	·	·	-2.4	2.5
O=C(CCCc1c[nH]c2ccccc12)NCc1cccs1	-6.0%	0.3	-4.9	0.655	0.8	6.3	0.0
c1ccc(SCCc2ccncc2)cc1	-1.9%	-0.3	0.1	0.737	4.4	3.3	-2.2
CC1CCN(S(=O)(=O)N2CCC(C(=O)NCCC3=CCCCC3)CC2)CC1	-2.8%	-0.3	-8.1	0.721	2.3	6.0	1.8
O=C1CC(NN2CCCCC2)C(=O)N1c1ccccc1 (stereo unspecified)	-5.6%	0.1	3.8	0.728	6.8	-5.5	-0.2
CC(C)c1cc(Br)ccc1OCCCN1C(=O)NC(C)(C)C1=O	-1.1%	-0.7	7.6	0.682	5.1	-0.4	-4.5
O=c1cc(-c2ccccc2)cc(-c2ccccc2)n1CCO	·	1.2	-10.3	0.621	4.1	-6.3	-3.7
Brc1csc(C=Nc2ccc3c(c2)OCCOCCOCCOCCO3)c1	11.6%	-0.7	6.2	0.652	4.4	-1.9	4.1
COc1ccccc1C(CNC(=O)CCNS(=O)(=O)c1ccc(Br)cc1)N1CCCC1 (stereo unspecified)	-4.2%	·	3.2	0.711	-0.5	·	0.6
COc1ccc(C(=O)NCCS(=O)(=O)NCCc2ccccc2)cc1	3.1%	-0.4	-2.8	0.676	-0.4	-2.9	4.0
Cc1ccc(NC(=S)N2CCN(Cc3ccccc3)CC2)cc1	2.3%	0.1	1.3	0.622	2.0	-2.1	2.5
C=CCNc1nc(Cl)ncc1F	·	0.6	-3.9	0.709	3.2	1.0	-1.8

3 compounds out of the list above, ordered by their value in E coli growth, ascending:
| Molecule | Vif A3G | B2AR ag | E coli growth | UCH37 DUB inh | LANA-H2A inh | HNF4A DNA FP |
| --- | --- | --- | --- | --- | --- | --- |
| O=c1cc(-c2ccccc2)cc(-c2ccccc2)n1CCO | · | -10.3 | 0.621 | 4.1 | -6.3 | -3.7 |
| COc1ccc(C(=O)NCCS(=O)(=O)NCCc2ccccc2)cc1 | 3.1% | -2.8 | 0.676 | -0.4 | -2.9 | 4.0 |
| c1ccc(SCCc2ccncc2)cc1 | -1.9% | 0.1 | 0.737 | 4.4 | 3.3 | -2.2 |
